Source: PubChem BioAssay
VACV Venus inh = vaccinia inhibition (Venus reporter). Vaccinia virus Venus reporter expression, fluorescence. Potency, µM (top dose mostly 36.5 µM), inactives show at the highest dose activity change, negative = inhibition, hits mostly inhibitors. 330,000 tested, 0.46% active. AID 720580; active means well fitted inhibition curve with a large enough effect; inconclusive means small, poorly fitted or top-dose-only effect; inactive means no such curve, though single readings can be large or run the other way; tested in A549 cells; further: nearly all actives have a fitted effect of over 30% in size; inactives centre near -10
VACV mCherry inh = inhibitors of vaccinia virus infection (mCherry reporter signal); Vaccinia virus mCherry reporter infection, fluorescence; about a quarter of the inactives have no number; Potency, µM (titrated, usually from 36.5 µM), for the others: top-dose activity change, negative = inhibition, actives largely listed as inhibitors; 310,000 tested, 0.63% active; AID 720579; active = well fitted inhibition curve with a large enough effect; inconclusive = small, poorly fitted or top-dose-only effect; inactive = no such curve, though single readings can be large or run the other way; tested in A549 cells; further: nearly all actives have a fitted effect of over 35% in size; inactives centre near -10
* = called active by the depositor; i = inactive; ? = inconclusive; . = no result given. On the % scale 0 is the no-effect control and ±100 the full control effect; potency means the concentration at half of the fitted maximal effect.

Start of the data: the first three records (preview)
SMILES	VACV Venus inh	VACV mCherry inh
Nc1nonc1-c1nc2ccccc2n1CC(=O)N1CCCCC1	-10%	-10%
COc1ccc(N2CCN(C(=O)c3ccc(OCc4c(C)noc4C)c(OC)c3)CC2)cc1	1%	.
Cc1ccc(CN(CC(=O)NCCc2ccccc2)C(=O)c2csnn2)cc1	1%	-16%

Results, from the start:
SMILES	VACV Venus inh	VACV mCherry inh
Nc1nonc1-c1nc2ccccc2n1CC(=O)N1CCCCC1	-10%	-10%
COc1ccc(N2CCN(C(=O)c3ccc(OCc4c(C)noc4C)c(OC)c3)CC2)cc1	1%	.
Cc1ccc(CN(CC(=O)NCCc2ccccc2)C(=O)c2csnn2)cc1	1%	-16%
COc1ccccc1NC(=O)CSc1nnc(COc2ccc(Cl)cc2)o1	1%	-14%
CC(C)CN(C(=O)COC(=O)c1cncc(Br)c1)c1c(N)n(Cc2ccccc2)c(=O)[nH]c1=O	-7%	-11%
O=C(c1[nH]c(C(F)(F)F)nc1-c1ccccc1)N1CCc2ccccc2C1	-2%	i
COc1cccc(-c2csc(N3CCN(CC(=O)NNC(=O)c4ccc(Br)cc4)CC3)n2)c1	-24%	-21%
CCn1nc(NS(=O)(=O)c2ccc([N+](=O)[O-])cc2)c2cc3ccccc3nc21	-4%	-12%
O=C1c2ccccc2C(=O)N1CCn1ccnc1	-4%	i
Cc1ccccc1C(=O)c1c[nH]c(C(=O)NCc2cccs2)c1	-8%	-17%
CN1CCN(c2cnn(-c3ccccc3)c(=O)c2Br)CC1	-5%	i
CCOC(=O)c1[nH]c(=S)n(-c2ccccc2)c1C(=O)OCC	-13%	i
COc1ccc(-c2c[nH]c(=O)[nH]c2=O)cc1OC	-2%	-3%
CC(C)Oc1ccc(C(=O)Nc2cccc(S(=O)(=O)N3CCCC3)c2)cc1	-24%	?
COc1ccc(CN2CCN(Cc3ccco3)CC2)c(OC)c1	0%	-12%
CC1CCN(C(=O)CSCC(=O)Nc2nc(-c3cccs3)cs2)CC1	-10%	-10%
CCOC(=O)c1cc2c(=O)n3ccccc3nc2n(C(C)C)c1=NC(=O)c1ccncc1	2%	-16%
CCOc1ccc(Cc2c(O)nc(SC)[nH]c2=O)cc1	2%	i
Cc1ccc(-c2noc(CCC(=O)Nc3ccc(C)cn3)n2)cc1	-2%	.
Cc1cc(C)c2cc(C(=O)N3CCc4ccccc4C3)[nH]c2c1	-28%	?
O=C(NCCOc1ccccc1)c1ccccc1SCC(=O)N1CCCC1	-2%	-14%
COc1cc(C(=O)NCc2nnc(SCC(=O)Nc3ccc4c(c3)OCO4)o2)cc(OC)c1OC	11%	-4%
Cc1ccc(S(=O)(=O)Nc2cc(C(=O)NCCN(C)C)ccc2N2CCCCC2)cc1	?	.
O=C(Nc1cccc(Cl)c1)N(CCN1CCOCC1)Cc1cccc(Cl)c1	-21%	-13%
Cc1ccc(CNC(=O)CCn2c(=O)oc3ccccc32)cc1	-2%	-9%
CC1Cc2ccccc2N1C(=O)c1cnc2n(c1=O)CCS2 (stereo not given)	-6%	-6%
CCCCCC1CCC(c2ccc(C(N)=O)cc2)CC1 (stereo not given)	-8%	.
Cc1ccc[n+](CC(=O)c2ccc(Cl)cc2)c1	-5%	-20%
CCCSc1ncc(Cl)c(C(=O)N(Cc2ccc(N(C)C)cc2)C2CCS(=O)(=O)C2)n1 (stereo not given)	-15%	-18%
O=C1C=C(Nc2cccc3cccnc23)c2ccccc2C1=O	5%	?
COC(=O)C(NC(C)=O)(Nc1cccc(C)n1)C(F)(F)F (stereo not given)	-17%	-1%
O=S(=O)(c1ccc(Cl)cc1)N(Cc1ccccn1)Cc1ccccn1	-2%	-15%
C1=C(c2ccccc2)CCNC1	-16%	i
COc1ccc(CNC(=O)Nc2nc(C(N)c3ccccc3)cs2)cc1 (stereo not given)	-24%	-10%
O=C(Nc1ccc(NS(=O)(=O)c2ccccc2)cc1)c1ccccc1Cl	-17%	-28%
COCC(=O)Nc1ccc(C(C)C)cc1	-7%	i
O=C(Cc1cccc(NC(=O)C2CCN(C(=O)c3ccccc3)CC2)c1)Nc1cccc(C(=O)N2CCOCC2)c1	-1%	-10%
Cc1cc2nc(-c3ccc(F)cc3)c(CC3CCCCC3)n2c(C)c1Br	-4%	i
COc1cc(CC2C(=O)Nc3ccccc32)cc(C)c1O (stereo not given)	-6%	-15%
O=C(c1ccccc1)c1ccc2nc(-c3ccc(NC(=O)c4ccccc4Br)cc3)[nH]c2c1	-25%	-23%
O=C(CCSc1nc2ccccc2o1)N1CCOCC1	11%	.
COc1cccc(C(=O)n2nc(-c3cccnc3)nc2NCc2ccc(F)cc2)c1	2%	-6%
O=C(/C=C/c1ccco1)Nc1ccc2c(c1)OCO2	-7%	0%
COc1cc(CN(C(=S)NCC(=O)NC2CCCC2)C2CCCC2)cc(OC)c1OC	-5%	i
NC1=NC[C@H](Cc2ccccc2)N1CCc1cccc(F)c1	-13%	?

The last 4 entries of the part before are carried over, then new ones follow:
SMILES	VACV Venus inh	VACV mCherry inh
COc1cccc(C(=O)n2nc(-c3cccnc3)nc2NCc2ccc(F)cc2)c1	2%	-6%
O=C(/C=C/c1ccco1)Nc1ccc2c(c1)OCO2	-7%	0%
COc1cc(CN(C(=S)NCC(=O)NC2CCCC2)C2CCCC2)cc(OC)c1OC	-5%	i
NC1=NC[C@H](Cc2ccccc2)N1CCc1cccc(F)c1	-13%	?
COCCN(C(=O)COC(=O)Cc1ccccc1)c1c(N)n(Cc2ccccc2)c(=O)[nH]c1=O	3%	-11%
COCCOC(=O)C1=C(C)NC2=C(C(=O)CC(C)(C)C2)C1c1ccc(N(C)C)cc1 (stereo not given)	-12%	-17%
OC(CN1CCN(c2ccccc2)CC1)Cn1c2ccccc2c2ccccc21 (stereo not given)	-13%	.
O=C(NCc1ccncc1)Nc1ccc(Cc2ccc(NC(=O)NCc3ccncc3)cc2)cc1	-20%	-4%
CC(=O)Nc1ccc(S(=O)(=O)NCCC(=O)N2CCCCC2)cc1	-20%	-17%
C[C@H]1C=C(C(=O)N2CCOCC2)O[C@@H](OCc2ccc(CO)cc2)C1	3%	-9%
O=C(N/C(=C/c1cccnc1)C(=O)N1CCOCC1)c1ccccc1F	-7%	-14%
Cn1ncc2c(Nc3ccc4ccccc4c3)ncnc21	?	?
CCc1ccc(CNC(=O)Cn2nc(-c3ccc(C)cc3)ccc2=O)cc1	-11%	-5%
CCOc1ccc2oc(C(=O)OCC(=O)NCC3CCCO3)c(C)c2c1 (stereo not given)	-14%	-21%
COc1ccc(CC(N)c2csc(Nc3cc(NCc4ccco4)ncn3)n2)cc1 (stereo not given)	-13%	-29%
O=C(OCC(=O)C12CC3CC(CC(C3)C1)C2)c1cnccn1	-17%	-12%
CCOC(=O)C(=O)Nc1sc(C(=O)N2CCOCC2)c(C)c1C#N	-16%	i
Cc1ccc(S(=O)(=O)NCc2ccccc2)cc1C(=O)NCc1ccncc1	-11%	i
O=C(O)C1CCCCC1C(=O)Nc1ccccc1Nc1ccccc1 (stereo not given)	-19%	.
CN(C)CCCNC(=O)COc1ccc(Br)cc1Cl	-11%	i
Cc1cccc(NC(=O)c2cc(-c3ccco3)nc3ccccc23)n1	-1%	-12%
Cc1ccc(NC(=O)Cn2cc(S(=O)(=O)N3CCCC3)c(S(=O)(=O)N3CCCC3)c2)c(C)c1	0%	-11%
C=Cc1ccc(Cn2c(C)c(CNCc3ccccc3C)c(C(=O)O)c2C)cc1	?	13%
CC[N+](CC)(CCO)CCCN1C(=O)C2CC=C(Cl)CC2C1=O (stereo not given)	-5%	.
CSc1nc(=O)[nH]nc1Sc1ccccc1	-16%	-27%
CC1CN(S(=O)(=O)c2ccc(C(=O)Nc3ccc(S(=O)(=O)Nc4nccs4)cc3)cc2)CC(C)O1 (stereo not given)	-5%	-13%
COc1ccc(/C=C(/C(=O)NCc2ccccc2)c2ccccc2)cc1	?	-20%
COc1ccc2cc(-c3ccccc3F)ncc2c1	-16%	?
CC(=O)c1c(C)[nH]c(C(=O)CSc2nc3ccc(C)cc3[nH]2)c1C	-15%	.
COc1ccccc1C(=O)Nc1sc2c(c1C#N)CCC2	-9%	i
CCOP(=O)(OCC)c1nc(/C=C/c2ccccc2)oc1NCc1ccccc1	-26%	?
O=C(c1ccc2c3c(cccc13)CC2)C1CCCN(C(=O)c2cccnc2)C1 (stereo not given)	-21%	-10%
Cc1nnc(Nc2ccc(Cl)c(C(F)(F)F)c2)[nH]c1=O	-7%	-18%
COc1ccc(C(C)(C)C)cc1NC(=O)CN(C)C1=NS(=O)(=O)c2ccccc21	-15%	-6%

One compound at a time, as listed above:
CC1CN(S(=O)(=O)c2ccc(C(=O)Nc3ccc(S(=O)(=O)Nc4nccs4)cc3)cc2)CC(C)O1 (stereo not given) is entered as VACV Venus inh: -5%; VACV mCherry inh: -13%
O=C(c1ccc2c3c(cccc13)CC2)C1CCCN(C(=O)c2cccnc2)C1 (stereo not given) is entered as VACV Venus inh: -21%; VACV mCherry inh: -10%

(list continues)
SMILES	VACV Venus inh	VACV mCherry inh
COc1cc(/C=N/O)ccc1OCc1ccc(C(=O)O)cc1	0%	-7%
CCOC(=O)c1nn(-c2ccccc2)c2nnc(Cc3ccc(Cl)cc3)c(=O)n12	7%	-9%
COCCN1Cc2cccc(C(=O)Nc3cccc(OC)c3)c2C1=O	2%	5%
Cc1ccc(CCNC(=O)C2CCC(=O)N(Cc3cccc(F)c3)C2)cc1 (stereo not given)	-19%	i
CCN(CCCNC(=O)CCc1nc(-c2ccc(OC)cc2)no1)c1cccc(C)c1	?	.
CC(C)c1ccc(CN(C(=O)c2cccs2)C2CCS(=O)(=O)C2)cc1 (stereo not given)	-11%	-24%
COc1ccc(CC(=O)Nc2sc3c(c2C(N)=O)CCCC3)cc1	-19%	i
COc1ccc(-c2c3c(cc4ncn(Cc5ccccc5)c24)COC3=O)cc1	-24%	-7%
COc1ccc(-c2noc(CN(C(=O)c3ccc4c(c3)OCO4)C(C)C)n2)cc1OC	-18%	-26%
C=CC[C@]12C[C@@H](OC)C(=O)C=C1O[C@@H](c1ccc(OC)c(OC)c1)[C@H]2C	-4%	-10%
CCS(=O)(=O)c1ccc(C(=O)Nc2ccccc2OC)c(Cl)c1Cl	-8%	i
O=C(CCS(=O)(=O)c1ccccc1)Nc1ccccn1	-6%	-7%
CCOC(=O)c1c(NC(=O)c2ccc(S(=O)(=O)N(C)C)cc2)sc2c1CCN(C)C2	?	i
CCCNC(=O)c1onc(CS(=O)(=O)c2cc(C)cc(C)c2)c1C(=O)NCCC	-17%	i
c1cnc2ccc(-c3ccc4ncccc4c3)cc2c1	-26%	-20%
CCCCCCC/C(C)=N/NC(=O)CC(=O)NCCc1ccccc1	-13%	-17%
Cc1ccc(-c2cc3nc(C)cc(C)n3n2)cc1	-7%	i
Cc1ccc(/C=N/Nc2nncc(-c3ccccc3)n2)o1	4%	-15%
NC(=O)c1ccc(NC(=O)CS(=O)(=O)c2cn(CC(=O)N3CCCCC3)c3ccccc23)cc1	-20%	-15%
COCc1nc2ccccc2n1Cc1ccc(Br)cc1	-16%	.
Cc1cc(C(=O)CNCc2ccco2)c(C)n1-c1ccc(F)cc1	-12%	-1%
C/C(=N\NC(=O)NC1CCCCC1)C1CCCCC1	-6%	-1%
CC(C)NC(=O)c1ccc(-c2ccccc2C(F)(F)F)o1	-14%	i
CCCc1cc(=O)[nH]c(Nc2ccc(C)c(O)c2)n1	-4%	-11%
S=C(NCc1ccc2c(c1)OCO2)Nc1ccc2nsnc2c1	-5%	-13%
CNC(=O)c1nn(-c2ccc(C)cc2)ccc1=O	-20%	.
COc1cccc(CNC(=O)C(=O)Nc2ccc3nc4n(c(=O)c3c2)CCCCC4)c1	?	?
CCOC(=O)C1=C(C)NC(=O)NC1c1ccc(OCC(=O)OC)c(OC)c1 (stereo not given)	-10%	.
Cn1c(=O)c2c(ncn2CC(=O)OCC(=O)c2ccc(Br)cc2)n(C)c1=O	-2%	i
O=C(NNS(=O)(=O)c1ccccc1)C(O)(c1ccccc1)c1ccccc1	-16%	i
CCC(C)NC(=O)c1cnc2n(c1=O)CCS2 (stereo not given)	-3%	-6%
COCCCNC(=O)c1c(N)n(/N=C/c2ccccn2)c2nc3ccccc3nc12	-10%	i
Cc1nc2ccc(S(=O)(=O)NCC(=O)N3CCc4ccccc4C3)cc2s1	-17%	-19%
O=C(O)CSc1ncccc1C(=O)O	-9%	-13%
NC(=O)c1nn(-c2ccccc2)nc1NC(=O)Cn1nnc(-c2ccccc2)n1	2%	-12%
Cc1cc(OCC(=O)Nc2ncn[nH]2)c(C)c(C)c1Br	-8%	-17%
O=C(NCc1ccccc1Cl)c1ccc(NC(=O)N2CCSc3ncccc32)cc1	-8%	-5%
CCOc1ccc(-n2c(SCC(=O)Nc3ccc(CC)cc3)nc3n[nH]c(C)c3c2=N)cc1	?	-30%
CC(C)(C)NC(=O)COC(=O)c1cncc(Br)c1	0%	-11%
CCCSCCCNC(=O)CN1C(=O)COc2ccc(S(=O)(=O)N3CCCC3)cc21	-11%	-13%
O=C(O)CC(C(=O)Nc1ccc(F)cc1)C1CCCO1 (stereo not given)	-14%	i
COc1ccc(N(CC(=O)Nc2ccc(Cc3ccncc3)cc2)S(=O)(=O)c2ccccc2)cc1	?	-6%
CCOc1cc(C2c3c(-c4ccc(Br)cc4)n[nH]c3C(=O)N2c2ccc(Cl)cc2)ccc1O (stereo not given)	-15%	-21%
COCCNC(=O)C1(C)CCCN(C(=O)c2cc(F)cc(F)c2)C1 (stereo not given)	0%	-7%
S=C(NCc1ccncc1)Nc1ccc(Cl)c(Cl)c1	-12%	-26%
CCCNC(=O)N[C@@H](CCSC)C(=O)OC	-14%	-2%
